# Assay outcomes: PubChem, National Center for Advancing Translational Sciences (NCATS)
# ClpP mod: qHTS Assay for Activators of ClpP; Potency, µM (doses to about 57.5 µM), for inactives: at the highest dose activity change, negative = active; 1.9% of 340,000 active; purified B. subtilis ClpP, FRET peptide cleavage, 20 min; active = well fitted falling curve with a large enough effect; inconclusive = small, poorly fitted or top-dose-only effect; inactive = no such curve, though single readings can be large or run the other way; also: potency is read from the fitted curve at half-maximal effect; the source files actives as falling curves though it sought activators and does not explain the sign; nearly all actives have a fitted effect of over 65% in size; many hits overshoot -100%
# Target sequence (P80244 whole entry, looked up): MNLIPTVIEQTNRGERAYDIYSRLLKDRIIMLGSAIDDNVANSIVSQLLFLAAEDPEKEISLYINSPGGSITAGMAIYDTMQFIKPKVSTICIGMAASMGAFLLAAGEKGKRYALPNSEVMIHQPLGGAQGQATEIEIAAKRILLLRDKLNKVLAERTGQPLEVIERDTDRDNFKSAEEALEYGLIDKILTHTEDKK
#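 Purified B. subtilis ClpP, 10 microg/mL final in Tris/HCl pH8 with KCl, BSA, glycerol and Tween-20, cleaved an Abz/nitrotyrosine-quenched decapeptide. Fluorescence (ex 320, em 430) was read at 0 and 20 min at room temperature. Delta was normalized to 5.8 microM ADEP and DMSO/no-enzyme controls.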
# PINK1 expr mod: modulators of PINK1 expression; PINK1 immunofluorescence, high-content cytometry, 24 h; Potency, µM (top dose mostly 76.6 µM), without a hit: top-dose activation (PINK1 increase), most hits filed as activators; 0.2% of 410,000 active; AID 624263; active = well fitted activation curve with a large enough effect; inconclusive = small, poorly fitted or top-dose-only effect; inactive = flat fitted curve, though single readings scatter; cell line not stated here;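 also: potency is read from the fitted curve at half-maximal effect; % of control where 0% means no effect; nearly all actives have a fitted effect of over 65% in size; a mitochondrial uncoupler was the plate control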
#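 A stable cell line was treated with compounds at 5 concentrations for 24 hours, with CCCP as control. PINK1 levels and mitochondrial localization were measured by immunofluorescence with mitochondrial, cell and nuclear markers after fixation, read by laser-scanning cytometry.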
# Menin MLL FP FL: displaces fluorescein MLL peptide from human menin; FP activity change, % at 61.4 µM; Fluorescence polarization, fluorescein-MLL peptide displacement from menin; 290,000 tested, under 10 active; inconclusive = falling polarisation curve, or a change in total fluorescence; inactive = total fluorescence flat and polarisation flat or rising; no compound was filed as active; the % refers to the polarisation; negative = inhibition;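 also: % of control where 0% means no effect; inhibitors lower the polarisation; unlabelled MLL peptide was the positive control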
# Sfp inh: blocks B. subtilis Sfp PPTase activity; Q9F4F7; Biochemical Sfp PPTase activity, qHTS; Potency, µM, without a hit: max response, negative = inhibition, most hits filed as inhibitors; 3.5% of 310,000 active; AID 1490; active = well fitted inhibition curve with a large enough effect; inconclusive = small, poorly fitted or top-dose-only effect, or another doubt; inactive = no such curve, though single readings can be large or run the other way;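 also: the enzyme is Sfp with the accession as filed and its product quenches rhodamine fluorescence; potency is read from the fitted curve at half-maximal effect; 0% = enzyme reaction without inhibitor and -100% = no enzyme wells; top concentration of the series not given in the record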
#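 After 15 min at room temperature with compound, 15 nM Sfp received 5 uM rhodamine-CoA plus 12.5 uM BHQ-2-ybbR (50 mM Hepes pH 7.6, 10 mM MgCl2). Rate came from the fluorescence difference over 30 min, ex 525/em 598 nm.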
# TRPV1 PAM: potentiators of human vanilloid receptor 1 (TRPV1); Q8NER1; TRPV1-expressing cells, Fluo-8 calcium influx, capsaicin EC20 potentiation; host cell line not named in the record; control for the full effect not named in the record; potentiation, % at 8.33 µM; 0.02% of 320,000 active; active means potentiation above 80%; inconclusive means 30% to 80%; inactive means below 30%; also: 0% is about no effect
#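 Cells expressing TRPV1 were dye-loaded with Fluo-8 and read kinetically: 10 s baseline, 3 min after compound (agonist portion), then 2 min after EC20 capsaicin (allosteric enhancer portion). Calcium-bound dye fluorescence at 480/520 nm.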
# TRPML1 blocker: blocks the human TRPML1 channel; TRPML1-inducible cells, Ca2+ dye fluorescence, FDSS; stronger effect = lower value; inhibition of EC80 agonist-evoked calcium signal; activity change, negative = inhibition, % (test concentration not listed); 0.02% of 390,000 active; in the data active means activity change below about -50%; inconclusive means about -30% to -50%; inactive means above about -30%;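 also: stimulus is agonist 54-4 at its EC80 concentration; % is scaled to controls: 0 for no effect and ±100 for the full control effect; compound concentration not given in the record; the text of the record puts the active cut at -80%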
# Target sequence (Q9GZU1 whole entry, looked up): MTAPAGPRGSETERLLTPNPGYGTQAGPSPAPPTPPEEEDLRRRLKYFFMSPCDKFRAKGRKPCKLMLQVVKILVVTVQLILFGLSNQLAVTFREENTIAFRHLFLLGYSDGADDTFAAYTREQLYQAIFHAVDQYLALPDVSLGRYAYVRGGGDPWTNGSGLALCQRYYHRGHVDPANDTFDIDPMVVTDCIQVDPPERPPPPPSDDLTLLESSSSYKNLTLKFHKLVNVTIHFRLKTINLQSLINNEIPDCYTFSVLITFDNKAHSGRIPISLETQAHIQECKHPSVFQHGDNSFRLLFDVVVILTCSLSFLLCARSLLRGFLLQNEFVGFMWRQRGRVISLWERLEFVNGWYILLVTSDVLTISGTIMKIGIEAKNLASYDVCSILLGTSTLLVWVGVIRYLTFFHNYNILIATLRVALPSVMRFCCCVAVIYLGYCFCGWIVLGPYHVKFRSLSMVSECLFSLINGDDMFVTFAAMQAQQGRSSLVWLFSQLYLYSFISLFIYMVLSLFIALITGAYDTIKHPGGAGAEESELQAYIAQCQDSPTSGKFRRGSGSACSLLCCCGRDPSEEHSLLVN
#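 Tet-induced TRPML1-DL cells loaded with Ca8 no-wash calcium dye were read kinetically on FDSS. Compound addition was followed by EC80 agonist 54-4 (4 uM final); inhibition was read over 110 s.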
# TRPML1 agonist: human mucolipin-1 channel agonism; Q9GZU1; TRPML1-expressing cells, Ca2+ dye fluorescence, FDSS; host cell line not named in the record; reference of the full effect not given here; activation, % (test concentration not listed); 0.12% of 410,000 active; AID 624414; in the data active = activation above about 50%; inconclusive = about 30% to 50%; inactive = below about 30%; also: 0% is about no effect; the text of the record puts the active cut at 80%
#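 Agonist activity was taken from a 110 s kinetic Ca2+ dye read on the FDSS after pinning compounds onto TRPML1-DL cells. The cells were seeded at 1,500/well with Tet inducer, incubated about 16 h, then dye-loaded at room temperature.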
# An asterisk follows results filed as active; ? = inconclusive; · = not tested or not shown; & = joins results of further samples; [ ] = dose if it differs, or a comment.
SMILES,ClpP mod,PINK1 expr mod,Menin MLL FP FL,Sfp inh,TRPV1 PAM,TRPML1 blocker,TRPML1 agonist
COC(=O)c1ccccc1NC(=S)NC(=O)COc1ccc(C(C)C)cc1,-6.3%,2.0%,2.6,-13%,-15,-4,7.9
CC1=C(C(=O)OCC2CCCO2)C(c2ccc(C)cc2)C2=C(CCCC2=O)N1 (stereo not drawn),·,1.6%,1.2,-3%,-3,8,-0.7
CCc1ccc(-n2nc3cc(C)c(N)cc3n2)cc1,3.7%,0.3%,-2.9,56µM*,-5,·,·
O=c1nc2c(-c3cccc(Br)c3)n[nH]n2c2ccccc12,·,0.5%,-1.3,13%,5,12,0.2
CCC(=O)Nc1ccc(S(=O)(=O)Nc2c(C)nc3nc[nH]n3c2=O)cc1,0.3%,1.2%,-1.9,18%,2,-2,-0.1
Cc1ccccc1OCCn1c(=O)oc2ccccc21,0.6%,-1.9%,-0.5,14%,1,61,-0.9
CCc1cccc(C)c1Nc1c(-c2cccc(O)c2)nc2sccn12,-5.3%,0.0%,·,·,·,13,3.9
COc1ccc(Cl)cc1NC(=O)CN(C)C(=O)c1ccc(COc2ccccc2)cc1,-4.2%,-0.3%,·,·,13,-8,1.2
O=C(NCCc1nnc2ccc(NCc3ccccc3Cl)nn12)c1ccccc1,·,8.8%,4.3,-7%,-15,10,0.7
C=CCN1C(=O)C(Cc2ccc(F)cc2)S/C1=N/N=C/c1cccs1 (stereo not drawn),1.5%,?,-1.0,5%,2,14,0.7
COC(=O)c1cn(NC(=O)Cn2nc([N+](=O)[O-])c(Cl)c2C)c(=O)c2ccccc12,-0.5%,-1.4%,-0.9,-2%,-1,7,0.6
Cc1ccnc(SCC(=O)c2cccc([N+](=O)[O-])c2)n1,0.8%,-1.4%,0.0,50µM*,-3,0,0.0
O=C(O)CSCC(=O)NCc1ccc(Cl)cc1Cl,·,-0.2%,-0.9,9%,2,4,-0.3
COc1ccc2cc(C(=O)N3CCN(c4cccc(C)c4C)CC3)[nH]c2c1,·,6.7%,0.4,-13%,?,22,1.9
COc1ccnc(Oc2ccccc2)c1C(=O)N/C=N/OCc1ccccc1F,·,-0.8%,-0.7,10%,-11,6,0.9
CCNC(=O)OCCC12CC3CC(CC(C3)C1)C2,5.2%,8.7%,-0.2,12%,-19,-4,3.1
CN(Cc1ccccc1)Cc1nc2c(c(=O)n(C)c(=O)n2C)n1CCCc1ccccc1,-5.9%,·,2.7,1%,-30,17,0.7
CC(O)CSc1nc2c(c(=O)[nH]c(=O)n2C)n1Cc1ccccc1 (stereo not drawn),-0.4%,0.6%,3.4,16%,17,17,-0.2
COC(=O)c1cccc(C23CC4(C2)[C@H](CN(Cc2ccc(C(F)(F)F)cc2)[C@@H]4c2ccccc2)C3c2ccccc2)c1 (stereo partly drawn),-0.1%,29%,6.2&7.8,31%&6%[activator],-23,4,-0.1
Cn1c(SCc2nc3ccccc3[nH]2)nnc1-c1ccccn1,-2.6%,-0.7%,-1.5,5%,-10,-4,-0.9
Cc1cc2nc(-c3ccc(Cl)cc3)c(Cc3cccc(F)c3)n2c(C)c1Br,2.5%,5.0%,·,·,·,36,0.2
O=C1C2(c3ccccc3)CN(CCCO)CC1(c1ccccc1)CN(CCCO)C2,0.0%,·,1.8,15%,3,-2,-0.3
CCN(CC)C(=O)CSc1nc2cc(OC)c(OC)cc2c(=O)n1Cc1ccc(Cl)cc1,-5.3%,·,2.9,-15%,29,44,-0.3
CCOc1ccccc1NC(=O)c1ccc(S(=O)(=O)N(C)c2ccccc2)cc1,-0.8%,0.1%,·,·,6,-13,2.2
CCCCN1C(=O)/C(=c2\sc3nc(=O)c(-c4ccccc4)nn3c2=O)c2ccccc21,-1.6%,-0.3%,2.5,16µM*,0,5,-0.6

# Additional structures follow:
SMILES,ClpP mod,PINK1 expr mod,Menin MLL FP FL,Sfp inh,TRPV1 PAM,TRPML1 blocker,TRPML1 agonist
Cc1ccc(SCC2CNc3nc4ccccc4c(=O)n32)c(C)c1 (stereo not drawn),0.5%,0.6%,2.7,-2%,29,3,0.2
CCN(CC(=O)NCc1cccs1)S(=O)(=O)c1cccc(C(C)=O)c1,-0.4%,-2.6%,6.2,12%,-1,-6,-0.6
Cc1ccccc1C(=O)Nc1ccnn1C1CCN(C(=O)C2CCOC2)CC1 (stereo not drawn),0.3%,3.7%,1.8,2%,9,-12,-0.1
COc1ccc(-c2c(S(=O)(=O)c3ccccc3)cnn2-c2ccccc2)cc1,-2.2%,-0.9%,-2.2,-2%,26,-25,3.0
CCN(CCn1cccn1)C(=O)c1cc(COc2ccc(F)c(F)c2)on1,0.5%,-0.1%,0.9,6%,-15,0,1.4
O=C(NNC(=O)c1ccc([N+](=O)[O-])cc1)c1ccc(NS(=O)(=O)c2cccs2)cc1,·,-2.0%,·,·,·,3,-0.1
COc1cc(C2C(C(C)=O)=C(O)C(=O)N2CCN(C)C)ccc1O (stereo not drawn),-0.1%,-2.7%,-1.0,3%,3,9,0.2
CCCn1c(=O)n(-c2ccccc2Cl)c(=O)c2sc3ccccc3c21,4.4%,-0.2%,·,·,·,-25,-0.9
Cc1cccc(OCC(=O)Nc2ccc(S(=O)(=O)Nc3ccccn3)cc2)c1,·,3.4%,-3.0,-1%,12,-12,0.8
CC(C)(C)c1ccc(OC(=O)c2ccc3nsnc3c2)cc1,-1.9%,?,3.9,-22%,7,12,1.6
Cc1ccc(/C=N/Nc2ccc(C(=O)O)cc2)s1,·,1.5%,13,-4%,8,7,-0.3
CCN(CC)CCNC(=O)c1ccc(NC(=O)c2ccc(F)cc2)cc1,-2.5%,-0.2%,-0.5,-2%,6,21,-0.2
Cn1c(SCC(=O)O)nc2sc3c(c2c1=O)CCC3,-1.8%,-0.1%,-0.8,16%,4,-17,-0.6
O=C1N=c2ccccc2=C1c1sc(Nc2cccc(O)c2)nc1O,-0.1%,1.4%,1.4,-25%,4,·,·
CCOC(=O)CSc1cc(CS(=O)c2ccc(Cl)cc2)nc(-c2ccccc2)n1 (stereo not drawn),-1.1%,-3.1%,4.7,-5%,-3,26,3.4
CCn1c(SCc2c(F)cccc2Cl)nnc1-c1ccco1,-0.9%,-3.5%[38.3 µM],4.4,7%,5,11,0.7
COC(=O)c1c(NC(=O)CSc2nccn2C)sc(C)c1C,-2.5%,0.6%,·,·,-2,-2,-0.5
CC1CCC(=NO)C(=NO)C1 (stereo not drawn),0.7%,1.0%,·,·,·,-2,-0.2
Cn1cc(-c2cc3n(n2)CCC(=O)N3CCCC(=O)NCc2ccc(Cl)cc2)c2ccccc21,-15%,0.3%,·,·,·,-14,-0.1
CC(=O)NC(c1ccccc1)c1nc(-c2ccc(F)c(Cl)c2)cs1 (stereo not drawn),-2.5%,-0.5%,·,·,·,·,-0.3
CCOc1ccc(NC(=O)Nc2ccc(Br)cn2)cc1,·,9.7%,2.0,15%,9,31,-0.6
Cc1cc(=O)n(C)c2ccc(S(=O)(=O)N3CCOCC3)cc12,-11%,0.0%,-0.4,3%,?,·,·
COc1ccc(OC)c(CNc2ccc([N+](=O)[O-])cc2C)c1,·,3.7%,-1.3,-1%,-6,23,0.6
Cc1onc(-c2ccccc2Cl)c1C(=O)N1CCN(C)CC1,·,-0.1%,-1.6,-8%,-4,16,0.9
Cc1nc2cnc(N3CCOCC3)nc2n(C2CC2)c1=O,·,-1.1%,8.0,12%,·,·,·

# Following part.
SMILES,ClpP mod,PINK1 expr mod,Menin MLL FP FL,Sfp inh,TRPV1 PAM,TRPML1 blocker,TRPML1 agonist
CCCCN(C(C)=O)c1c(N)n(CCC)c(=O)n(CC(=O)Nc2cc(Cl)cc(Cl)c2)c1=O,1.2%,6.2%,4.9,0%,1,-9,-1.4
NS(=O)(=O)c1ccc(CCNC(=O)c2ccc(=O)[nH]c2)cc1,·,3.1%,-3.8,-1%,-2,-12,1.0
Cc1cc2ccccc2n1CCNC(=O)COc1ccc2ccccc2c1,-5.8%,-1.0%,-3.4,3%,-8,5,0.8
Cc1ccc(CNC(=O)CN(C)S(=O)(=O)c2ccc3c(c2)n(C)c(=O)c(=O)n3C)cc1,-24%,0.9%,·,14%,9,27,-0.6
Cc1ccc2c(Sc3ccccc3)c(C(=O)NCc3ccccc3F)[nH]c2c1,-8.9%,5.3%,·,·,·,20,-0.5
CCOc1ccc(NC(=S)N(CCc2c(C)[nH]c3ccccc23)Cc2cccnc2)cc1,-0.8%,0.3%,-2.6,4%,10,-9,-1.7
COc1ccc(OCC(=O)NNC(=O)c2cccnc2)cc1,0.3%,0.1%,2.1,11%,5,13,-0.5
CCOC(=O)[C@@H]1[C@H]2COc3cc(OC)ccc3[C@@H]2N2C(=O)N(c3ccc(F)cc3)C(=O)[C@]12C,-1.9%,-0.9%,-2.5,2%,12,-9,1.0
CN(C(=O)c1cccc(NC(=O)Cc2cccc(NC(=O)C3CCN(C(=O)C4CCC4)CC3)c2)c1)C1CC1,1.6%,0.0%,·,·,·,28,-0.2
Clc1ccc(CSc2nnc(-c3ccccn3)n2Cc2ccco2)cc1Cl,0.3%,16%,·,·,·,27,3.6
CCCCNC(=O)CS(=O)Cc1nc(-c2cccs2)oc1C (stereo not drawn),-2.5%,-0.9%,3.0,12%,-5,-3,-0.4
CN1Cc2sc(N)c(C#N)c2CC1(C)C,0.5%,0.0%,?,-8%,-5,-3,0.7
CS(=O)(=O)c1ccc(Cl)c(C(=O)OCC(=O)NC2CCCCCCC2)c1,0.5%,1.5%,·,·,9,-4,-0.2

# Part of the list above, with tabs.
mol	ClpP mod	PINK1 expr mod	Menin MLL FP FL	Sfp inh	TRPV1 PAM	TRPML1 blocker	TRPML1 agonist
COc1ccc2cc(C(=O)N3CCN(c4cccc(C)c4C)CC3)[nH]c2c1	·	6.7%	0.4	-13%	?	22	1.9
CCN(CC)C(=O)CSc1nc2cc(OC)c(OC)cc2c(=O)n1Cc1ccc(Cl)cc1	-5.3%	·	2.9	-15%	29	44	-0.3
COc1ccc(Cl)cc1NC(=O)CN(C)C(=O)c1ccc(COc2ccccc2)cc1	-4.2%	-0.3%	·	·	13	-8	1.2
CCOc1ccc(NC(=O)Nc2ccc(Br)cn2)cc1	·	9.7%	2.0	15%	9	31	-0.6

# Rows were taken by chance; overall some 4.4% were active at least once.
